# Sa growth 42C: S. aureus growth inhibition at 42 and 30 °C, primary screen, LtaS inhibitor project, RN4220, two temperatures. OD600, 20 h, 42 °C; active compounds read low. relative growth, % (no concentration beside the values). 170,000 tested, 0.53% active;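 active means growth at 42 °C up to 50% and 20 or more points under that at 30 °C, or under 10% at both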;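 further: 300 nL library stock went into each well; scaled to the means of positive and negative controls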
# GIV-Gai inh: inhibitors of GIV peptide binding to Galpha-i3, primary screen, biochemical, fluorescence polarization, FITC-GIV GBA peptide, rat Galphai3 | 90 min; active compounds read low; scaled: aluminum fluoride 0%, vehicle 100% | 210,000 tested, 0.42% active | percent of control (FP), % (no concentration beside the values) | AID 1224905, 2016 | Guanine nucleotide-binding protein G(i) subunit alpha-3 (Rattus norvegicus), P08753;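 active means replicate mean at 85% of control or lower, very high polarization wells dropped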;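 further: wells of about 15 µL received 100 nL stock; the first replicate is given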
# Target sequence (P08753 whole entry, looked up): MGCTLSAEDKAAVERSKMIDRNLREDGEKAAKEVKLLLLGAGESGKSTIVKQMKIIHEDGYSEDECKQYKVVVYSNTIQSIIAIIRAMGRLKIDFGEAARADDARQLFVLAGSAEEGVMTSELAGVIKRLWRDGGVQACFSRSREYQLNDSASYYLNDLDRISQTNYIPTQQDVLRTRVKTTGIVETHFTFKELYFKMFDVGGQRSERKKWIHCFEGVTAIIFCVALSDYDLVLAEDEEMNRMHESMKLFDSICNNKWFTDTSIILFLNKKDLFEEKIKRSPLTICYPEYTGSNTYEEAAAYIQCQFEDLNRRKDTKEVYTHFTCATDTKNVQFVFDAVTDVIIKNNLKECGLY
# HCMV UL50-53 inh: inhibitors of HCMV UL50-UL53 interaction, biochemical, HTRF; HCMV UL50-UL53 nuclear egress complex (human cytomegalovirus); normalized percent inhibition; inhibition, % (concentration not given with the values); 190,000 tested, 0.15% active; AID 1918969, 2023;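 active means both replicates at 50% or more, plus weaker picks with an unusually low signal ratio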;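 further: stock transfer was 100 nL into about 20 µL; 0% = negative control wells and 100% = wells with untagged competitor protein; inactives centre near -12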
# Sa growth 42C second temp: further read-out of Sa growth 42C, marked with its call; relative growth, %; measured here: growth at 30 °C;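 optical density after 20 h as mean of two plates; 100% = untreated growth and lower means inhibition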
# * = called active by the depositor; . = not tested or not shown; & = joins results of further samples.
SMILES,Sa growth 42C,Sa growth 42C second temp,GIV-Gai inh,HCMV UL50-53 inh
CC1(C)CC(=O)C=C(SCc2cccc(Cl)c2)S1,60,20,101,-10
CCn1cc(C(=O)NCc2ccc3c(c2)OCO3)c(=O)c2cc(S(=O)(=O)N(C)C)ccc21,81,85,103,-22
CCOc1ccc(-c2nn(-c3ccccc3)cc2C2NC(=O)NC(C)=C2C(=O)OC(C)C)cc1 (stereo unspecified),104,87,113,-3
c1ccc2[nH]c(Nn3cnnc3)nc2c1,112,93,104,.
COc1cccc(-c2nnc3n(Cc4ccccc4Cl)c(=O)c4ccccc4n23)c1O,122,91,101,-22
Cc1ccc(Cn2c(=O)c3ccccc3n3c(-c4ccccc4)nnc23)cc1,130,94,102,-10
O=C(C1=C(O)C(=O)N(c2nncs2)C1c1cccs1)c1cccs1 (stereo unspecified),82,92,.,-58
Nc1ccc(S(=O)(=O)N2CCN(c3ccc(F)cc3)CC2)cc1S(N)(=O)=O,.,.,99,-26
Cc1ccc(NC(=O)Cn2c(=O)/c(=C3\C(=O)Nc4ccccc43)s/c2=C\C#N)cc1,90,97,.,-17
NC(=O)/C=C\c1cn(-c2ccccc2)nc1-c1ccc(F)cc1,87,89,.,-8
c1ccc2[nH]c(-c3ccc(Sc4nnnn4C4CCCC4)nc3)nc2c1,85,85,.,-21
O=C1C(=O)N(C2CCN(C(=O)c3ccc(Cl)cc3)CC2)CCN1Cc1cccc(F)c1,.,.,104,2

# In a second layout: 7 of the compounds above
# Value order: Sa growth 42C	Sa growth 42C second temp	GIV-Gai inh	HCMV UL50-53 inh
CC1(C)CC(=O)C=C(SCc2cccc(Cl)c2)S1
 : 60	20	101	-10
NC(=O)/C=C\c1cn(-c2ccccc2)nc1-c1ccc(F)cc1
 : 87	89	.	-8
Cc1ccc(Cn2c(=O)c3ccccc3n3c(-c4ccccc4)nnc23)cc1
 : 130	94	102	-10
CCOc1ccc(-c2nn(-c3ccccc3)cc2C2NC(=O)NC(C)=C2C(=O)OC(C)C)cc1 (stereo unspecified)
 : 104	87	113	-3
c1ccc2[nH]c(Nn3cnnc3)nc2c1
 : 112	93	104	.
O=C(C1=C(O)C(=O)N(c2nncs2)C1c1cccs1)c1cccs1 (stereo unspecified)
 : 82	92	.	-58
c1ccc2[nH]c(-c3ccc(Sc4nnnn4C4CCCC4)nc3)nc2c1
 : 85	85	.	-21

# Next part:
SMILES,Sa growth 42C,Sa growth 42C second temp,GIV-Gai inh,HCMV UL50-53 inh
COc1cc(/C=N/N=C2/C(=O)Nc3ccccc32)ccc1OCC(=O)N1CCOCC1,67,77,.,-62
CC(C)C(NC(=O)c1ccccc1F)C(=O)Nc1ccc(N2CCOCC2)cc1 (stereo unspecified),81,98,.,-13
CCN(CC)CCNC(=O)c1sc2ncnc(N3CCN(c4ccc(OC)cc4)CC3)c2c1C,.,.,102,-40
O=C(c1cccc2c1NC(c1ccc(Cl)cc1Cl)C1CC=CC21)N1CCCC1 (stereo unspecified),.,.,97,0
c1csc(-c2nc3ccc4ccccc4c3c3c2CCC3)c1,103,88,.,-5
COc1ccccc1S(=O)(=O)CC(SC#N)c1ccccc1 (stereo unspecified),74,89,99,-5
Cc1noc(C(F)(F)F)c1C(=O)O,87,93,105,-2
Cc1ccccc1-c1n[nH]c(=S)n1/N=C/c1ccc(N(C)C)cc1,133,78,103,-24
COc1cc2c(cc1OC)-c1nnc(-c3cccnc3)n1C1(CCCC1)C2,95,85,100,-32
CCS(=O)(=O)N1CCC(Oc2ccc(-n3cnnn3)cc2)CC1,96,93,100,-6
CC(=O)N(CN1C(=O)c2ccccc2C1=O)c1ccc2ccccc2c1,103,93,98,.
Cc1ccc(N2CCN(C(=O)N3CCCCCC3)CC2)cc1Cl,104,91,111,24
Cc1ccc(N2C(=O)C(C=NCc3ccc(C(=O)O)cc3)C(=O)NC2=S)cc1 (stereo unspecified),124,85,101,.
CCN1CCC(N(Cc2ccc(F)cc2)C(=O)Nc2cccc(C(F)(F)F)c2)CC1,108,110,112,.
Oc1cc(C(F)(F)F)cc(C(F)(F)F)c1,90,97,.,13
CS(=O)(=O)c1ccc(F)cc1,90,98,.,-11
COC(=O)CSc1nc2ccccc2o1,98,101,.,12
CCCCOc1cccc(C(=O)Nc2ccc3oc(-c4cccnc4)nc3c2)c1,102,79,105,-64
Cc1cccc(NC(=S)N(CCN(C)C)Cc2cc3cc4c(cc3[nH]c2=O)OCO4)c1,104,98,102,-18
Nc1cccc2c1C(=O)N(CCOc1ccccc1F)C2=O,139,105,.,-20
CCc1cccc(NC(=O)OC2CCN(C)CC2)c1,123,97,.,6
CCOc1ccc(CN2C(=O)c3ccccc3Sc3ccc(C(=O)NCc4ccc(C)cc4)cc32)cc1,105,87,102,-18
CN(C)/N=C(\NO)c1c(Cl)cccc1Cl,101,92,108,-5
CN(C)CCSc1nnc(NCc2ccccc2O)s1,95,89,.,-12
C=CCn1c(NCc2ccc(N(C)C)cc2)nc2ccccc21,95,90,104,-4
COc1ccc(Cl)cc1NC(=O)c1ccc2c(c1)CCN2S(C)(=O)=O,97,96,104,10
Clc1ccc(C=NCC2COc3ccccc3O2)cc1 (stereo unspecified),82,106,106,.
Cc1nc2scc(C)n2c(=O)c1S(=O)(=O)NCCc1ccccc1,102,99,101,3
Cc1nc2scc(CC(C)C)c2c(=O)[nH]1,105,92,.,-7
COc1cccc(CNC(=O)Cc2csc3nc(-c4ccccc4)cn23)c1,96,74,105,.
Cc1cc(C)nc(NS(=O)(=O)c2ccc(Nc3nc(-c4sc(N)nc4C)cs3)cc2)n1,.,.,109,-37
COC(=O)Cn1c(=N)n(CCN2CCCCC2)c2ccccc21,91,88,96,-21
O=C(CCCn1sc2ccccc2c1=O)Nc1ccccc1F,102,87,100,-21
CC(C)Cn1c(=O)c2sccc2n2c(CCC(=O)NCCC3=CCCCC3)nnc12,.,.,102,-9
CC(C)N1CCC(=O)N(c2ccccc2)C1=O,100,86,103,-44
Cc1cc(Br)ccc1NC(=O)C(Cc1ccccc1)NS(=O)(=O)c1ccc(Br)s1 (stereo unspecified),110,111,101,-3

# Compound profiles, from the list above. Values in the order: Sa growth 42C, Sa growth 42C second temp, GIV-Gai inh, HCMV UL50-53 inh
# `Cc1nc2scc(C)n2c(=O)c1S(=O)(=O)NCCc1ccccc1` reads 102, 99, 101, 3
# `Cc1cc(Br)ccc1NC(=O)C(Cc1ccccc1)NS(=O)(=O)c1ccc(Br)s1` (stereo unspecified) reads 110, 111, 101, -3

# (listing goes on)
SMILES,Sa growth 42C,Sa growth 42C second temp,GIV-Gai inh,HCMV UL50-53 inh
CCOc1ccc(-c2cc(N)n(S(=O)(=O)c3ccccc3)n2)cc1,101,93,100,5
CCOC(=O)C1CCN(C(=O)CN2CCN(Cc3ccc(C)cc3)C(=O)C2=O)CC1,.,.,114,-10
OCCN1CCN(C(=S)/N=C(/Nc2ccccc2)c2ccccc2)CC1,104,92,107,-11
COc1ccc(-n2ncc(C(=O)N3CCN(C(=O)c4ccco4)CC3)c2C2CCN(C(=O)OC(C)(C)C)CC2)cc1,93,93,107,.
Cc1oc(-c2ccccc2F)nc1Cn1c(SCc2cccc(C(F)(F)F)c2)nc2ccncc21,99,80,101,8
Cc1sc2nc(CN3CCOCC3)nc(NS(=O)(=O)c3ccc4c(c3)OCCO4)c2c1C,118,109,.,0
COc1ccc(Cl)cc1NC(=O)Cn1c(=O)c2ccccc2n2nncc12,107,70,108,-28
COc1cccc(/C=C2/SC(=Nc3ccccc3Cl)NC2=O)c1OC,.,.,105,-16
O=C(NCCS(=O)(=O)N1CCN(c2ccccc2F)CC1)C1c2ccccc2Oc2ccccc21,.,.,103,-18
Cc1c(S(=O)(=O)c2ccc(Cl)cc2)cnc2cc(C3CC3)nn12,99,89,99,-4
CCOc1ccc(NC(=O)CSc2nc(-c3ccc(OC)cc3)nc3c2Cc2c(CO)cnc(C)c2O3)cc1,102,100,112,.
CC(=O)OC1C(c2ccccc2)=NN(C(C)=O)C1c1ccccc1 (stereo unspecified),97,88,102,.
NS(=O)(=O)c1ccc(CCNC(=O)C2COc3ccccc3C2)cc1 (stereo unspecified),89,91,101,.
Cc1cccc(C(=O)N2CCOCC2)c1,90,126,.,6
COc1ccc(OCCSc2nc3ccccc3n2CCO)cc1,.,.,100,-13
CC1CCc2[nH]nc(C(=O)O)c2C1 (stereo unspecified),99&110,99&81,103&97,-1
Cn1c(=O)n(C)c2cc(C(O)COc3ccc(CNC(C)(C)C)cc3)ccc21 (stereo unspecified),98,87,100,-21
O=C(CS(=O)(=O)c1ccccc1)Nc1cccnc1,97,92,102,6
COc1ccc(C(=O)COC(=O)c2nn(C)cc2Cl)cc1,109,74,105,-13
CC(=O)Nc1cc2c(cc1C(=O)c1ccc(Br)cc1)OCCO2,109,104,.,-16
Cc1ccc(N(CC(=O)Nc2ccc(S(=O)(=O)N3CCCCC3)cc2)S(=O)(=O)c2ccc(F)cc2)cc1,.,.,101,-5
COc1ccccc1C(c1c(O)[nH]c(=S)[nH]c1=O)N(Cc1ccccc1)C(C)C (stereo unspecified),124,85,96,.
NC1c2ccccc2-c2ccccc21,109,102,.,-34
COc1ccccc1NC(=O)CN(c1cc(C)cc(C)c1)S(=O)(=O)c1c(C)[nH]c(=O)[nH]c1=O,106,94,102,10
COc1cccc(C(=O)NC2CC(=O)N(c3ccc4c(c3)OCCO4)C2)c1OC (stereo unspecified),88,93,101,.
O=C(NC1CCCC1)N1CCC2(CC1)Oc1ccccc1C(=O)N2Cc1ccc(F)cc1,124,90,107,.
COc1ccccc1CCN=Cc1ccnc(SCc2ccc(Cl)cc2Cl)n1,101,95,101,-20
COc1ccc(S(=O)(=O)N(Cc2nc(-c3ccccc3)no2)C2CCCCC2)cc1,110,82,104,-28
CCS(=O)(=O)N1CCN(c2cc(-c3ccc(C)cc3)ncn2)CC1,.,.,99,-18
O=C(Nc1ccc2c(c1)COC2=O)c1cccc(Cl)c1,108,96,109,-26
COc1cccc(C2CC(=O)Nc3cc(OC)c(OC)c(OC)c32)c1OC(C)C (stereo unspecified),118,92,101,4
Cc1cccc(-c2ccc(N3CCC(C(=O)N4CCC(N5CCCCC5)CC4)CC3)nn2)c1,.,.,101,-55
COc1ccc(NC(=O)COc2ccc(S(=O)(=O)NC3CCCCC3)cc2)c(OC)c1,99,88,105,-40
COc1cccc(NC(=O)C2(C#N)Cc3ccccc3N3CCCC32)c1 (stereo unspecified),103,85,.,-31
CC(=O)N1CCCc2cc(S(=O)(=O)Nc3ccc(C)c(F)c3)ccc21,89,87,98,.
O=c1c(Oc2ccccc2)coc2cc(OCc3ccccc3)ccc12,130,92,.,0
CCN(CC)C(=O)CSc1nc2sccc2c(=O)n1-c1ccccc1,80,102,.,-20
COc1ccc(C2=NN(C(=O)Cn3cc(C(F)(F)F)ccc3=O)C(c3ccco3)C2)cc1 (stereo unspecified),89,100,.,-24

# Screens (PubChem)
